Source: PubChem
Mtb hypoxia inh = PubChem AID 1159583; M. tuberculosis hypoxia-regulated fluorescent reporter, fluorescence; fluorescence inhibition, % (test concentration not listed); 300,000 tested, 0.1% active;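 active means 35 to 45% if threefold the growth effect, above 45% if 1.5-fold the growth effect; inactive means the rest, general growth blockers included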;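 further: wells of about 50 µL received 100 nL stock; 0% = vehicle wells and 100% = reference inhibitor wells; whole bacteria with a GFP reporter of the hypoxia response; strong numbers were not always called active; many hits fall short of the cut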
ugtP null kill = growth inhibition of ugtP-null S. aureus, primary screen, RN4220 ugtP deletion, OD600; 16 h; some inactives read as strong as hits; growth inhibition, % (concentration not given with the values); 330,000 tested, 0.54% active;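 active means z-score under -3 and OD600 up to 0.15 on both plates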;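 further: plate controls were untreated wells for no effect and antibiotic for full effect; wells of about 80 µL received 100 nL stock; the first replicate is given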
Bead autofluor = compound fluorescence in toxin protease inhibitor counterscreen; compound autofluorescence counterscreen, microsphere flow cytometry; stronger effect = higher value; fluorescence intensity (no concentration beside the values); 360,000 tested, 3.1% active; AID 624483;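 active means at least 3 SD above the mean of all compounds, about 16000 in these data; inconclusive means too few beads counted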;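 further: 100 nL of 1 mM stock went into each well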
PrP 5UTR inh = inhibition of PrP 5' UTR reporter expression | cell-based PrP 5' UTR mRNA reporter, plate reader | inhibition, % (test concentration not listed) | 340,000 tested, 0.35% active | AID 488862, 2010;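 active means every replicate at 50% or more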;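 further: 0 = median of the neutral control wells; tested in H4 reporter cells; numbers are from one replicate; inactives centre near -14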
Sa RN4220 lethal = growth inhibition of S. aureus RN4220, primary screen, OD600; 330,000 tested, 0.33% active; AID 1259311, 2017; 16 h; inhibition, % (test concentration not listed);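 active means z-score of -3 or lower and OD600 up to 0.18 on both plates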;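 further: plate controls were untreated cells for no effect and reference antibiotic for full effect; stock transfer was 100 nL into about 80 µL; one replicate is shown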
BJeLR viability = MLPCN primary cell-based screen for lethality selective to Ras in HRASV12 cells; inhibition, % (test concentration not listed); BJeLR (HRASV12) viability, CellTiter-Glo ATP luminescence, 48 h; reference of the scale not given here; AID 1554, 2009; 300,000 tested, 0.17% active;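 active means replicate mean above 50%; inconclusive means above 50% but judged a plate artefact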;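 further: 50 nL library stock added to about 25 µL; numbers are from one replicate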
Mtb hypoxia inh growth = second read-out of Mtb hypoxia inh, no call of its own (marks repeat the call); growth inhibition, %; measured here: M. tuberculosis growth (absorbance);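 0% = vehicle and 100% = reference antibiotic; read after six days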
* marks the source's active call; other numbers are inactive results; ? = inconclusive; nt = no result given.

Molecule	Bead autofluor	ugtP null kill	Mtb hypoxia inh	BJeLR viability	Mtb hypoxia inh growth	PrP 5UTR inh	Sa RN4220 lethal
O=C(C[C@@H]1C/C=C\C[C@H](NC(=O)OCC2c3ccccc3-c3ccccc32)C(=O)OC[C@H]2CCCN2C1=O)N[C@H](CO)Cc1ccccc1	3390	3	-4	nt	6	-11	4.7
Cc1ccccc1C(=O)NC1CCN(C(=O)Nc2ccccc2Cl)CC1	3238	4	1	-12	3	-20	9.2
O=C(N/N=C/c1cc2c(cc1[N+](=O)[O-])OCO2)c1ccccn1	8732	nt	nt	4	nt	-59	nt
Cc1cc(=O)n(C(NC(=O)c2ccccc2)C(=O)c2ccccc2)cn1 (configuration not stated)	9393	1	19	-7	18	-21	1.8
CN(Cc1ccccc1)C(=O)c1cccc(NC(=O)c2ccco2)c1	2736	-6	nt	5	nt	-16	-1.1
Cc1cc(-c2ccccc2)nc2oc3c(c12)NC(=O)CN(c1ccccc1)C3=O	3901	3	14	-3	7	-19	-0.7
COc1ccc2c(c1)c(C(C)=O)c(C)n2-c1ccc(C(C)=O)cc1	3952	6	7	18	3	-2	1.0
CCCCCCC1(C)NC(=O)N(C(C)C(=O)Nc2ccc(N3CCOCC3)cc2)C1=O (configuration not stated)	8276	-1	4	nt	-1	-11	0.3
Cc1ccc(NS(=O)(=O)c2cc(C(=O)N(C)C3CCN(C)CC3)ccc2Cl)cc1Cl	nt	12	-4	nt	5	-11	5.4
CCOc1ccc(S(=O)(=O)N(CC(=O)NCc2ccncc2)c2ccc(C)cc2)cc1	5702	6	6	15	6	-14	3.1
O=C(c1ccc(COc2c(F)c(F)c(F)c(F)c2F)o1)N1CCN(Cc2ccc3c(c2)OCO3)CC1	4352	-23	2	1	0	3	6.9
COCCNC(=O)C(c1ccc(C)o1)N(C(=O)Cn1nnc2ccccc21)c1ccccc1 (configuration not stated)	2392	2	-5	8	0	-20	1.6
Cc1nnc(SCC(=O)NC2CCCc3c2cnn3-c2ccc(F)cc2F)o1 (configuration not stated)	6273	-3	0	-1	8	-5	0.3
COc1ccc(OC)c(/C=N/NC(=O)CNC(=O)c2ccc(S(=O)(=O)N3CCCC3)cc2)c1	2620	nt	nt	-6	nt	-39	nt
CCn1c(COc2ccc(C)cc2)nnc1SCc1nc2ccccc2[nH]1	19776*	-1	-10	11	-4	-1	0.1
CCOc1ccc(/C=N/N2C(C)CCCC2C)cc1 (configuration not stated)	4017	nt	nt	11	nt	-35	nt
O=C(CNc1ccccc1)NN=C1CCCC1	4687	4	-10	16	0	-11	1.9
CCC(C)c1ccccc1OCCCCN1CCCC1 (configuration not stated)	11237	1	15	6	4	-12	4.7
COC(=O)C1=C(C)NC(=O)NC1c1ccc(N2CCC(c3ccccc3)=N2)cc1 (configuration not stated)	2495	5	0	-3	0	-16	-2.9
O=C(Nc1ccc(S(=O)(=O)N2CCCCC2)cc1)C1CCN(C(=O)c2ccc(F)cc2)CC1	?	1	6	-10	-1	-18	7.2
CCOc1ccc(C(=O)NCC(=O)OCc2cc(C(C)=O)ccc2OC)cc1	2129	-1	14	-1	1	-3	1.1
CC(C)NC(=O)NC(=O)COC(=O)c1ccc([N+](=O)[O-])cc1Cl	3898	-7	10	15	4	-21	-2.0
COc1ccc(C(=O)Nc2nc(C)c(C)s2)cc1OC	2358	10	nt	0	nt	-64	-2.5
CCC(=O)c1ccc(N2CCN(S(=O)(=O)c3ccccc3)CC2)c(F)c1	4018	9	0	5	-11	-13	-1.0
COc1ccc(NC(=O)C(=O)NCC2CCCN2S(=O)(=O)c2ccc(C)cc2)cc1 (configuration not stated)	8646	1	5	51*	11	78*	3.4
Cc1cccc(Oc2nc3ccccn3c(=O)c2/C=C(\C#N)C(=O)NC2CCS(=O)(=O)C2)c1C (configuration not stated)	4487	-5	-3	5	2	-15	-2.1
O=C(c1ccco1)N1CCN(Cc2cccc(C(F)(F)F)c2)CC1	3610	10	-4	8	15	-12	5.4
COc1cc(C=NNC(=O)c2ccc([N+](=O)[O-])cc2Cl)cc(Br)c1O	nt	-6	0	nt	7	nt	0.3
Cc1ccc(C(=O)OCC(=O)c2c[nH]c3ccccc23)cc1	2547	4	-5	2	2	-84	1.6
COc1ccc(OC)c(NC(=O)CSc2ccc(-c3cccnc3)nn2)c1	5561	4	4	-5	5	-6	-0.9
CCCn1c(N)c(C(=O)CSc2nnc(Cc3ccccc3)o2)c(=O)n(C)c1=O	4207	-6	9	-1	8	-14	8.0
CCn1ccnc1CN1CCC(CO)(CCOc2ccccc2)CC1	2281	3	10	4	7	-24	1.6
N#CC1C(C#N)C2CCC1C1C2N1c1ccccc1 (configuration not stated)	3286	-4	11	nt	6	-7	0.8
N#CCc1ccc(OC(=O)c2cccnc2)cc1	4554	-4	11	6	14	-9	2.1
CCN(C(=O)c1ccc(S(=O)(=O)N2CCOCC2)cc1)C1CCS(=O)(=O)C1 (configuration not stated)	nt	4	5	-2	-2	-15	3.6
CC(C)CC(=O)Nc1nc2ccc(S(C)(=O)=O)cc2s1	2027	0	-6	7	-2	-5	2.4
O=C(CCC1CCCN(c2ncccn2)C1)NCc1ccc(F)c(F)c1 (configuration not stated)	2574	6	8	4	3	-19	1.1
O=c1[nH]c(CSc2ncc(-c3ccc(F)cc3)n2Cc2ccco2)nc2ccccc12	5260	0	7	1	7	-23	5.1
O=C(N/N=C/c1ccc2c(c1)OCO2)C1COc2ccccc2O1 (configuration not stated)	5721	nt	nt	2	nt	-14	nt
CC(=O)OC(C)(C)C#CCN1CCCC1	8052	1	7	-3	4	3	4.1
COC1CC(C)NC(=S)N1 (configuration not stated)	3619	1	-8	-8	2	-28	5.1
CCOc1ccc(N(CC(=O)OC)S(=O)(=O)c2c(C)noc2C)cc1	6089	1	nt	-1	nt	-2	0.7
O=C(c1cnccn1)N1CCN(c2ccccc2)CC1	7775	5	15	-2	9	-10	5.8
COc1ccccc1N1CCN(C(=O)c2cc(-c3ccc(Br)cc3)on2)CC1	4589	-8	-4	5	-1	4	14
O=C(Nc1cc(S(=O)(=O)N2CCOCC2)ccc1O)c1ccco1	3639	10	nt	-2	nt	-1	3.5
Cc1ccc(CNc2ccc3c(c2)ncn3C)cc1	6800	4	10	-2	2	-102	1.4
NC(=O)NC(=O)COC(=O)/C=C/c1cccc(Br)c1	5167	-1	-10	1	-17	-19	11
NCCc1nnc(SCc2ccccc2)o1	9069	-10	2	4	15	-4	6.1
CC(=O)NCCOc1c(C)cc(S(N)(=O)=O)cc1C	2842	-6	nt	7	nt	-1	5.5
Cc1ccc(NC(=O)CCNS(=O)(=O)c2ccc(Br)cc2)cc1S(=O)(=O)N1CCOCC1	5179	4	3	2	6	-32	4.6
CCN(Cc1ccccc1)S(=O)(=O)c1ccc(F)cc1	3270	9	6	-21	0	7	2.1
CC(=O)c1cccc(NC(=S)Nc2cccc3ccccc23)c1	5361	0	-6	5	0	-64	0.1
CCN(C(=O)COC(=O)c1cc([N+](=O)[O-])ccc1N1CCCCC1)C1CCS(=O)(=O)C1 (configuration not stated)	4811	-2	7	6	2	-14	-2.0
C#CCN1C(=O)S/C(=C/c2cc(C)n(CC)c2C)C1=O	2438	-6	1	-18	-6	-161	-0.8
O=C(c1ccc2ccccc2c1)C1CCCN(C(=O)c2noc3c2CCCC3)C1 (configuration not stated)	3919	7	10	-10	2	-12	9.8
COc1ccc(C2NC(=O)C(C)S2)cc1 (configuration not stated)	24997*	3	0	6	1	2	-1.0

3 entries already listed, arranged by SMILES length, largest number first:
Molecule	Bead autofluor	ugtP null kill	Mtb hypoxia inh	BJeLR viability	Mtb hypoxia inh growth	PrP 5UTR inh	Sa RN4220 lethal
C#CCN1C(=O)S/C(=C/c2cc(C)n(CC)c2C)C1=O	2438	-6	1	-18	-6	-161	-0.8
CC(=O)NCCOc1c(C)cc(S(N)(=O)=O)cc1C	2842	-6	nt	7	nt	-1	5.5
COc1ccc(C2NC(=O)C(C)S2)cc1 (configuration not stated)	24997*	3	0	6	1	2	-1.0

Other compounds follow:
Molecule	Bead autofluor	ugtP null kill	Mtb hypoxia inh	BJeLR viability	Mtb hypoxia inh growth	PrP 5UTR inh	Sa RN4220 lethal
C#CCSc1ncc(-c2ccccc2)cn1	4933	-2	3	-2	7	-83	14
CC1(C)CC(=O)C(c2c[nH]c3ccccc23)C(=O)C1	4444	22	-5	1	-2	-16	5.4
C=CCNC(=O)c1cccc2c1C(=O)c1ccc(N3CCCC3)cc1S2(=O)=O	4223	12	10	nt	11	-10	5.2
O=C(OC1CCOC1=O)c1cc(-c2cccs2)nc2ccccc12 (configuration not stated)	4555	4	-3	5	4	-11	2.0
COc1ccc(CN2C3CCCC2CC(NC(=O)/C=C/c2ccccc2)C3)cc1 (configuration not stated)	4147	7	6	1	4	-28	1.6
CNc1ccccc1C(C)(C)c1ccn[nH]1	4588	0	8	-2	7	-8	6.2
CCCCCCCc1c(C#N)c(N)[nH]c(=S)c1C#N	nt	8	-9	-5	-3	nt	22
COCCCN(C(=O)CCOc1ccc(C)cc1)c1c(N)n(Cc2ccccc2)c(=O)[nH]c1=O	6213	5	-4	-8	-7	-6	2.2
O=C(CC1OC(=O)c2ccccc21)Nc1cc(Cl)ccc1N1CCOCC1 (configuration not stated)	nt	4	7	nt	9	nt	0.5
CCOc1ccc(N(CC)C(=O)CCNC(=O)Cn2ccc3ccccc3c2=O)cc1	6080	2	5	10	12	-19	3.3
Cc1cc(-n2c(C)cc(C(=O)CSc3nc4ccccc4c(=O)n3Cc3ccco3)c2C)no1	7364	2	3	4	-4	19	2.3
CCOc1ccccc1NC(=O)CCC(=O)Nc1ccc2nc(N3CCN(C)CC3)cc(C)c2c1	3060	0	nt	9	nt	-13	3.4
Cc1ccc(-c2nc(CS(=O)CC(=O)NCCN3CCCCCC3)c(C)o2)cc1 (configuration not stated)	5899	0	6	1	11	-8	0.9
O=C(c1cc(-c2ccccc2)on1)N1CCCCCC1	3700	1	14	6	-8	-34	1.1
O=C(NCCc1csc(-c2ccccc2)n1)c1c(F)cccc1Cl	2467	8	-4	-1	4	-11	0.0
O=C(CN1CCN(c2cccc(Cl)n2)CC1)N1CC(O)CO1 (configuration not stated)	4765	1	2	-2	-5	-14	4.9
C=CCOc1ccccc1C=NNC(=O)c1ccc(Cl)cc1Cl	nt	3	5	nt	2	nt	5.8
Cc1cc(C)cc(N(CC(=O)O)S(=O)(=O)c2c(C)[nH]c(=O)[nH]c2=O)c1	4148	18	6	6	1	4	4.1
Cc1nc(SC2CC(=O)N(c3ccccc3)C2=O)n[nH]1 (configuration not stated)	2556	16	0	-1	-2	-12	11
OC1(c2cccc(C(F)(F)F)c2)CCN(Cc2nnnn2CCc2ccccc2)CC1	3031	1	nt	-18	nt	-7	-0.2
CCCOc1ccc(NC(=O)CC2C(=O)Nc3ccccc3N2CC(=O)N2CCCC2)cc1 (configuration not stated)	3160	8	4	nt	-5	-4	4.0
OC(CN1CCN(C(c2ccccc2)c2ccccc2)CC1)c1ccccc1 (configuration not stated)	3846	5	-3	-5	0	-8	-3.4
COc1cccc(N2CCN(S(=O)(=O)c3ccc4c(c3)oc(=O)n4C)CC2)c1	6172	2	4	-2	-6	-22	0.6
CCC1([N+](=O)[O-])COC(C=Cc2ccccc2)OC1 (configuration not stated)	3954	1	7	nt	12	-30	4.5
O=C(CN1C(=O)C2CCCCC2C1=O)Nc1cc([N+](=O)[O-])ccc1F (configuration not stated)	5657	3	5	nt	11	-15	4.2
O=S(=O)(NN1CCOCC1)c1ccc(Cl)s1	3697	8	-4	2	-1	-15	2.5

One compound at a time, as listed above. Values in the order: Bead autofluor | ugtP null kill | Mtb hypoxia inh | BJeLR viability | Mtb hypoxia inh growth | PrP 5UTR inh | Sa RN4220 lethal
OC(CN1CCN(C(c2ccccc2)c2ccccc2)CC1)c1ccccc1 (configuration not stated) reads 3846 | 5 | -3 | -5 | 0 | -8 | -3.4
O=S(=O)(NN1CCOCC1)c1ccc(Cl)s1 reads 3697 | 8 | -4 | 2 | -1 | -15 | 2.5
